AID504770 = growth inhibitors of E. coli YBA685 in a screen for V. cholerae RctB (chromosome II replication) inhibitors; E. coli YBA685 rctB-dependent plasmid, OD600 growth, 3 h; active compounds read low; z-score (test concentration not listed); 130,000 compounds, 0.27% hits; AID 504770;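 active = z-score under -2 on both plates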;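 also: wells of about 30 µL received 100 nL stock; score is relative to mean and SD of the test wells; the first replicate is given; strong numbers were not always called active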
CapD inh = blocks the Bacillus anthracis CapD enzyme. purified CapD enzyme, fluorescence intensity read-out; active compounds read low; some hits fall short of the stated cut. z-score (concentration not given with the values). 140,000 compounds, 0.23% hits. AID 492967;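 active = z-score under -4 in either of two replicates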;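 also: stock transfer was 100 nL into about 40 µL; score is relative to mean and spread of the plate; one replicate is shown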
Numbers without * were called inactive. Hits appear at their usual frequency; any-hit rate near 0.37%.

`CC(=O)Nc1ccc(C(=O)OCC(=O)Nc2ccc3ccccc3c2)cc1` gave AID504770 0.7 and CapD inh -1.
O=S(=O)(Nc1nc(SCc2ccc(Cl)cc2)n[nH]1)c1ccccc1 was read as AID504770 -0.3 and CapD inh -0.46.
Screening COc1cc(OC)nc(CCC(=O)N2CCN(C(c3ccccc3)c3ccccc3)CC2)n1 returned CapD inh -0.29.
For Cc1cn(CC(=O)NCCN)c(=O)[nH]c1=O the results were AID504770 -0.45 and CapD inh 0.77.
Screening c1ccc(Cn2nnnc2SCc2ccc(CSc3nnnn3Cc3ccccc3)cc2)cc1 returned AID504770 0.8 and CapD inh 1.8.
For COC(=O)CN1C(=O)C(C)(C)Oc2ccc(C(=O)Nc3cccc(OC)c3)cc21 the results were AID504770 -0.45.
Screening Cc1ccc(NC(=O)Cc2c(C)nc3ncnn3c2C)cc1 returned AID504770 0.8.
For CCOC(=O)c1[nH]c(CO/N=C/C(=O)Nc2ccc3c(c2)OCCO3)c(C(=O)OCC)c1C the results were AID504770 -0.55.
For CCCCNC(=O)c1cc(S(=O)(=O)N2CCOCC2)ccc1Sc1ccc(Br)cc1 the results were CapD inh -0.53.
C#CCN1CCC2=C(C1)c1c(O)cc(C(C)CCCCc3ccc(F)cc3)cc1OC2(C)C (centres undefined) was read as CapD inh -0.14.
For CC/C(O)=C(/C#N)c1nnc2n1CCCCC2 the results were CapD inh 0.36.
For O=C(CN1C(=O)S/C(=C\c2cccs2)C1=O)N1CCCC1 the results were AID504770 1.6.
Screening CCC(O)c1cc2c(cc1NC(=O)c1cccs1)OCCO2 (centres undefined) returned AID504770 -0.7 and CapD inh -0.65.
`CCOc1cccc(NC(=O)c2cc(=O)c3ccccc3o2)c1` gave AID504770 1.1 and CapD inh 0.11.
For Cc1cc(C(=O)N2CCC(Cc3ccccc3)CC2)on1 the results were AID504770 -0.15 and CapD inh -0.46.
For COC(=O)c1ccc(NC(=O)C(C(C)C)N2C(=O)c3ccccc3C2=O)cc1 (centres undefined) the results were AID504770 0.75 and CapD inh 0.15.
Screening Cc1cc(Cl)ccc1S(=O)(=O)n1nnc2ccccc21 returned CapD inh -0.78.
CCOC(=O)CSc1sc(C(=O)OCC)c2c1C(O)CCC2 (centres undefined) was read as AID504770 0 and CapD inh 0.98.
For c1ccc(-n2nnnc2Sc2nc(C3CC3)n(-c3ccccc3)n2)cc1 the results were AID504770 0.25.
N#CCC(=O)c1cccc(CSc2ccccc2Cl)c1 was read as AID504770 0.15 and CapD inh -0.35.
`CC(NC(=O)CSc1nccc(=O)[nH]1)C1CC2CCC1C2` (centres undefined) gave AID504770 -0.2.
For Cc1nc(Sc2nnc3n2CCCCC3)c2c(-c3cccs3)csc2n1 the results were AID504770 -0.9.
Screening COc1ccc(-c2noc(CC(=O)N(C(C)C)C3CCCCC3)n2)cc1 returned AID504770 -1.1 and CapD inh -0.4.
Screening N#C/C(=C(/O)CN1CCN(Cc2ccccc2)CC1)c1nc(-c2ccccc2)cs1 returned AID504770 -0.35.
`COc1cc(C2C3=C(CC(C)(C)CC3=O)N(C)C(=O)N2C)cc(OC)c1OC` (centres undefined) gave AID504770 0.5.
CC(NC(=O)Cn1c(CCCO)nc2ccccc21)C1CC2CCC1C2 (centres undefined) was read as AID504770 0.7.
`COc1ccc2[nH]c(=O)c(-c3ccccc3)c(O)c2c1` gave AID504770 0.55 and CapD inh 3.
Screening C=CCNC(=S)N1CCCc2ccccc21 returned AID504770 -0.35.
`Cc1oc(-c2ccc(C(=O)O)cc2)nc1CN1CCCCC1` gave AID504770 1.1 and CapD inh 0.23.
`O=C1Nc2ccccc2/C1=C/c1ccc(-c2ccc(F)cc2)o1` gave AID504770 0.8.
`COc1ccc(CCn2ccc(O)c(Cc3ccc(Cl)cc3)c2=O)cc1OC` gave CapD inh -0.46.
Screening CSc1ccccc1NC(=O)CN(C)CC(=O)Nc1ccc(N2CCOCC2)cc1 returned AID504770 -0.15.
`COc1ccccc1C(=O)Nc1ccc2nc(SCC(=O)Nc3ccc(C)cc3C)sc2c1` gave AID504770 0.15 and CapD inh 31.
For CC(=O)N1CCN(CCNC(=O)c2ccncc2)CC1 the results were AID504770 -0.95 and CapD inh -0.17.
Screening O=C(O)C1CCCN1Cc1c[nH]c2ccccc12 (centres undefined) returned AID504770 0.25 and CapD inh 0.36.
Screening CCOc1ccc(NCc2nc3ccccc3n2C)cc1 returned AID504770 0.75 and CapD inh 0.08.
Screening CC(=NCCc1ccccc1)C1CCOC1=O (centres undefined) returned AID504770 -0.45 and CapD inh 0.31.
For COC(=O)c1ccc(C2OCCCO2)cc1 the results were AID504770 0.45 and CapD inh 0.49.
CN1CCN(C(=O)CCN2C(=O)/C(=C/c3ccc(Cl)cc3)SC2=S)CC1 was read as AID504770 -0.05 and CapD inh 0.69.
Screening Cc1c(C(=O)N2CCN(c3ccccn3)CC2)sc2ncnc(N3CCN(c4ccccc4)CC3)c12 returned CapD inh -0.9.
Screening COc1cc2ncnc(Sc3ccccn3)c2cc1OC returned AID504770 -0.85 and CapD inh 2.
For CCn1c2ccccc2n2c(SC(C)C(=O)O)nnc12 (centres undefined) the results were AID504770 -0.75 and CapD inh -0.51.
Screening COc1ccc2[nH]c(=O)c(CNCc3ccccc3)cc2c1 returned AID504770 2.2.
For Cc1noc(NC(=O)NC(=O)c2cc(F)c(N(C)C)c(F)c2)c1C the results were AID504770 -0.05 and CapD inh 0.85.
`CC(=O)Nc1nc(C2CCCCC2)cs1` gave AID504770 0.4 and CapD inh -0.29.
`COc1ccc(OC)c(C2SCCN2C(=O)c2cc3cc(Br)ccc3oc2=O)c1` (centres undefined) gave CapD inh 0.17.
For CCCCC(=O)Nc1cccc2nsnc12 the results were AID504770 0.1 and CapD inh -1.4.
Cc1csc(=O)n1CCC(=O)OCc1ccc(C#N)cc1 was read as AID504770 -0.4.
`C=CCn1c(N)cc(=O)nc1SCC(=O)NC1CCCCC1` gave AID504770 0.5.
CCCn1nc(C(=O)Nc2ccc(S(=O)(=O)N(C)C)cc2)c2ccccc2c1=O was read as AID504770 -0.05.
Screening NC(=O)COc1ncn(-c2ccccc2)n1 returned AID504770 -0.9 and CapD inh -0.43.
For COc1ccc(C(=O)c2c(N)sc3c2CCN(C(=O)OC(C)(C)C)C3)cc1 the results were AID504770 -0.2 and CapD inh 0.44.
Screening COC(=O)Cc1nc(Nc2ccc(C)c(F)c2)c2c(C)c(C)sc2n1 returned CapD inh 0.42.
Screening Cc1nc(N)[nH]c(=O)c1CCC(C)C returned AID504770 -1.3 and CapD inh -0.47.
Screening O=C(C1COc2ccccc2O1)N1CCCc2ccccc21 (centres undefined) returned AID504770 0.1.
Screening CC1(C)Cc2ccccc2-c2nc3[nH][nH]c(=S)n3c(=O)c21 returned AID504770 0.6 and CapD inh 6.2.
Screening COc1cc2c(cc1NS(=O)(=O)N1CCCCC1)oc1ccccc12 returned AID504770 -0.7 and CapD inh 9.6.
`C=CCSc1nnc(NC(=O)/C=C/c2c(Cl)nc3sccn23)s1` gave AID504770 0.4.
Screening O=C1NC2(CCCCC2)C(=O)N1CCN1C(=O)c2ccccc2C1=O returned AID504770 -0.3.
CC1CC(C)(C)N(C(=O)Nc2ccccc2)c2ccccc21 (centres undefined) was read as CapD inh 1.5.
For CCN(CC(=O)Nc1cccc(OC)c1)CC(=O)Nc1ccccc1C the results were AID504770 0.65.
Screening O=C1c2ccccc2C(=O)N1/N=C/c1ccc(O)c(O)c1 returned AID504770 2.1 and CapD inh -2.
CC1=C(C(=O)OC2CCCC2)C(c2ccc(C)o2)C2=C(CCCC2=O)N1 (centres undefined) was read as AID504770 -0.65.
Screening O=C(O)c1cccnc1SC1CC(=O)N(c2ccc(Cl)cc2)C1=O (centres undefined) returned AID504770 0.1 and CapD inh -0.44.
Screening CCOC(=O)N1CCN(Cc2nc(N)nc(Nc3ccc(C)cc3)n2)CC1 returned AID504770 -0.8 and CapD inh 0.46.
For CCCOc1ccc(N2C(=O)CC(SCC(=O)O)C2=O)cc1 (centres undefined) the results were AID504770 0.45 and CapD inh 0.075.
Screening O=C(Cn1nnc(-c2ccccc2)n1)C12CC3CC(CC(C3)C1)C2 returned AID504770 -0.7.
`COC(=O)c1cc(-c2ccccn2)no1` gave AID504770 0.05 and CapD inh 1.2.
COC(=O)Nc1ccc(S(=O)(=O)N2CCCC(C(=O)NC3CCCCC3)C2)cc1 (centres undefined) was read as CapD inh 0.05.
Screening Clc1ccccc1-c1nc(C2CCCCC2)no1 returned AID504770 -0.3 and CapD inh 0.7.
Cc1ccc(-c2csc(C(C#N)=C3CCC(C)CC3)n2)cc1 (centres undefined) was read as CapD inh -0.15.
For CCOC(=O)CNC(=O)c1ccc(Cl)cc1 the results were CapD inh 0.17.
Screening CCN1C(=O)c2cccc3c(S(=O)(=O)N(C(=O)c4ccncc4)c4ccc(OC)cc4)ccc1c23 returned AID504770 -0.8 and CapD inh 0.95.
For CCOC(=O)c1ccc2nc(/N=C/NO)sc2c1 the results were AID504770 -1.3 and CapD inh 0.34.
CCSc1nc2c(c(=O)n1CC)SCC2 was read as AID504770 -0.35.
COc1ccc(-c2cc(C(F)(F)F)n3nc(C(=O)Nc4cc5c(cc4[N+](=O)[O-])OCCO5)cc3n2)cc1 was read as CapD inh -0.43.
CCOC(=O)c1c(C)n(-c2ccccc2Br)c2c1cc(O)c1ccccc12 was read as CapD inh 0.53.
For O=c1c2c(-c3cccs3)csc2[nH]c(=S)n1CCc1ccccc1 the results were AID504770 1.6.
For CCN(Cc1ccncc1)C(=O)C(COC(=O)N1CCN(c2cc(OC)cc(OC)c2)CC1)c1ccccc1 (centres undefined) the results were CapD inh -0.76.
Cc1cc(C)c2[nH]c(=O)c(CNCC3CCCO3)cc2c1 (centres undefined) was read as AID504770 -0.9.
`O=C(OCCN1C(=O)c2ccccc2C1=O)C1CCCCN1S(=O)(=O)c1ccccc1` (centres undefined) gave AID504770 0.25.
`COc1ccc(C2c3sc(=O)[nH]c3SC3C(=O)N(CC(=O)O)C(=O)C32)cc1` (centres undefined) gave AID504770 0.45.
Screening Cc1cc(N=Cc2c(O)n(-c3ccc(C(C)C)cc3)c(=O)c3ccccc23)n[nH]1 returned AID504770 1.2.
For Cc1c(=O)n(OCc2ccc(Cl)cc2)c2ccccc2[n+]1[O-] the results were AID504770 -0.6 and CapD inh 1.
Cc1cc(=O)oc2c3c(ccc12)OCN(C(C)(C)C)C3 was read as AID504770 -0.75 and CapD inh 98.
For Cc1ccc(OC(=O)OCSc2nn[nH]n2)cc1 the results were AID504770 -0.5 and CapD inh -7.1*.
`O=C(Nc1ccc(-n2cccc2)cc1)c1ccc(Cl)cc1` gave AID504770 -0.6 and CapD inh 0.48.
For S=C1NC(c2ccc(Br)cc2)=CC(c2ccccc2Cl)N1 (centres undefined) the results were CapD inh -0.02.
`O=C(CN1CCCCC1)Nc1cc(C(F)(F)F)cc(C(F)(F)F)c1` gave CapD inh 0.1.
Screening Cc1nc(NCc2ccco2)c2c3c(sc2n1)CCC3 returned AID504770 -0.85 and CapD inh -0.58.
COCCCNc1nc(-c2ccc(C(C)(C)C)cc2)nc2ccccc12 was read as CapD inh 2.2.
For O=C(CN1CCN(S(=O)(=O)c2ccccc2)CC1)Nc1cccc(C(F)(F)F)c1 the results were AID504770 -0.05.
`CC1CCCCN1CCC(=O)O` (centres undefined) gave AID504770 0.15 and CapD inh 0.59.
For CCOC(=O)N1CCc2c(sc3c2c(=O)n(-c2ccccc2)c(=O)n3CC(=O)Nc2ccccc2F)C1 the results were AID504770 0.6 and CapD inh -0.76.
